VDR inhibitor = Inhibitors of the vitamin D receptor (VDR): qHTS | AID 504847, 2011 | VDR-SRC2-3 peptide fluorescence polarization, 2 h | Potency, µM, for the others: max response, negative = inhibition, hits mostly inhibitors | 400,000 compounds, 0.93% hits; active = well fitted inhibition curve with a large enough effect; inconclusive = small, poorly fitted or top-dose-only effect, or another doubt; inactive = no such curve, though single readings can be large or run the other way; note: series mostly up to about 120 µM
Target sequence (P11473 whole entry, looked up): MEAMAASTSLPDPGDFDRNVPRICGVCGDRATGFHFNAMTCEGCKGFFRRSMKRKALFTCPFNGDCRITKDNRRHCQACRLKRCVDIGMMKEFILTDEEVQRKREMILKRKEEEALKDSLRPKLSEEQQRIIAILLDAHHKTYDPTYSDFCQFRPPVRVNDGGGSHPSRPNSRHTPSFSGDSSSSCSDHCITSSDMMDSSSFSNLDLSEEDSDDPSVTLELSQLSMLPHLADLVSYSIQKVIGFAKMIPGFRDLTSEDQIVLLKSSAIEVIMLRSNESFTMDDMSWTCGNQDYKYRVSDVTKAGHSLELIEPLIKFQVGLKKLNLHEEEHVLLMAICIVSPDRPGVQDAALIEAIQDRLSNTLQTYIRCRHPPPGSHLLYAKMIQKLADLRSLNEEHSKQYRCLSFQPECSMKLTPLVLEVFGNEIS
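FP read-out; VDR + SRC2-3 coactivator peptide; 23 nl compound by pintool; 2 h RT incubation; reagents held at 4 deg C, protected from light.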
* = called active by the depositor; ? = inconclusive. % is set by controls: 0 for no effect and ±100 for the full control effect; potency is the fitted concentration of half-maximal effect.

VDR inhibitor	smiles
23%	CC(=O)NC1CSCC1OC(C)=O (stereo not drawn)
-9%	CC(C)(C)NC(=O)NC(=O)COC(=O)CNC(=O)C1CCCCC1
-8%	CCN(CC)S(=O)(=O)c1ccc(N2CCOCC2)c(NC(=O)CSCc2c(C)noc2C)c1
7%	Cc1nc(S(=O)(=O)Cc2ccccc2Cl)nc2c1CCC2
9%	COc1ccc(S(=O)(=O)Nc2cc(-c3cn4ccc(C)cc4n3)ccc2C)cc1OC
11%	COc1ccc(/C=C(\C#N)C(=O)OCC(=O)N(C)C2CCS(=O)(=O)C2)cc1 (stereo not drawn)
-12%	O=C(Nc1cccc(F)c1)c1sc(Cl)nc1-c1ccccc1
-23%	COc1ccc(CNC(=O)CN(c2cc(C)cc(C)c2)S(=O)(=O)c2c(C)noc2C)cc1
-3%	O=S(=O)(NCc1cn2ccccc2n1)c1cccs1
2%	CC(C)OC(=O)c1c(NC(=O)c2cc3nc(-c4ccccc4)cc(C(F)(F)F)n3n2)sc2c1CCCC2
5%	CCN(CC(=O)NCc1ccc(Cl)cc1)S(=O)(=O)c1ccc(F)cc1
4%	CC1CCCC(C)N1Cc1cn2ccccc2n1 (stereo not drawn)
8%	O=c1c2ccccc2c(-c2cccc(C(F)(F)F)c2)nn1-c1ccccc1
12%	Cc1ccc(Oc2ccc3c(c2)C(=O)N(c2ccc(S(=O)(=O)Nc4nccs4)cc2)C3=O)cc1
-1%	COc1cccc(NC(=O)/C=C/c2ccco2)c1
-1%	CCCCCC1CC(=O)NC1(C(=O)OCC)C(=O)OCC (stereo not drawn)
-5%	Cc1ccc2cc(C#N)c(NCc3ccco3)nc2c1
-5%	CC(C)(C)OC(=O)N1CCCC(C(=O)Nc2cccc(C(=O)N3CCCCC3)c2)C1 (stereo not drawn)
8%	CCn1c(C)nnc1SCC(=O)Nc1ccc(Cl)cc1
14%	COc1ccc(N2C(=O)CS(=O)(=O)C23C(=O)N(Cc2ccc(C)cc2)c2ccccc23)cc1Cl (stereo not drawn)

The results go on.
VDR inhibitor	smiles
-2%	CC(C)N(CCCNC(=O)C1CCC(CNS(=O)(=O)c2ccccc2)CC1)Cc1ccccc1 (stereo not drawn)
17%	C=CCNC(=O)COC(=O)/C=C/c1cccs1
-13%	COc1ccccc1CCn1c(=O)c(-c2ccccc2)nc2cncnc21
-8%	COc1cc2cc(CCCOC(=O)c3cc(OC)c(OC)c(OC)c3)oc(=O)c2cc1OC
-24%	O=C(NNc1cc(Cl)ccc1Cl)c1cccs1
-10%	N=C1C2=C3Sc4ccccc4N3CCCC2=NN1c1cccc(S(=O)(=O)O)c1
?	Cc1noc(C)c1-c1cncnc1NCCN1CCOCC1
-3%	CC1(N2CCCCC2)CC2(O)C(=[N+]1[O-])CCC/C2=N\O (stereo not drawn)
-8%	Cc1ccc(C(=O)NCCc2nnc3ccc(N4CCCC4)nn23)cc1
2%	Cc1ccc(CNC(=O)c2cc(-c3ccc(C)cc3)nc3n[nH]c(-c4cccc([N+](=O)[O-])c4)c23)cc1
11%	Cc1c(C(=O)N2CCC(C(=O)Nc3ccc(F)c(Cl)c3)CC2)sc2nc[nH]c(=O)c12
-2%	C=CC[C@@H](Cc1ccc(F)cc1)C(=O)OC[C@H]1CCCN1C(=O)[C@H](CC=C)CC(=O)NCCO
-9%	COc1ccc(-c2nnc3ccc(SCC(=O)Nc4nc5ccccc5s4)nn23)cc1OC
-13%	Fc1ccc(Nc2nc3ccccc3c3nncn23)c(Cl)c1
2%	Cc1onc(-c2ccccc2)c1C(=O)Nc1ccc(OC(C)C)cc1
-6%	O=C(CSc1ccc(-c2cccnc2)nn1)Nc1ccc(F)cc1F
0%	O=C(COc1ccccc1)NCC1CCCO1 (stereo not drawn)
?	COc1ccc(C(=O)C(CN2CCOCC2)c2ccccc2)cc1F (stereo not drawn)
8%	COc1cc(C(=O)NCC(c2ccco2)N2CCCC2)ccc1OCc1c(C)noc1C (stereo not drawn)
-2%	CCOc1ccc(CC(=O)NCc2ccc3c(c2)CCN3C(=O)c2ccccc2)cc1OCC

Next structures follow.
VDR inhibitor	smiles
-13%	CC(=O)C1=CN(CC2CCCCC2)CCC1=O
-8%	Cc1cc(C)n(CC2CC(=O)N(c3cc(Cl)cc(Cl)c3)C2=O)n1 (stereo not drawn)
9%	CCC(C)c1ccc(NC(=S)N2CCCC2)cc1 (stereo not drawn)
17%	O=C(CSCc1ccc(Cl)cc1)Nc1ccccc1O
13%	O=C(C1=C(O)C(=O)N(CC2CCCO2)C1c1cccnc1)c1ccco1 (stereo not drawn)
13%	O=C(O)c1ccc(/C=N/Nc2ccc(Cl)nn2)cc1
-14%	CCCc1cc(=O)oc2c3c(cc(OCC(=O)NCC4CCC(C(=O)O)CC4)c12)OC(C)(C)CC3 (stereo not drawn)
-11%	Cc1cc(NC(=O)CSCC(=O)OCC(=O)Nc2cc(C)c(C)cc2[N+](=O)[O-])no1
-21%	CC(C)n1c(COc2ccccc2)nc2ccccc21
?	CN(C)S(=O)(=O)c1cccc(C(=O)OCC(=O)Nc2ccccc2OC(F)F)c1
?	Cc1ccccc1C1CC(=O)Oc2ccc(O)cc21 (stereo not drawn)
-2%	COc1ccc(OC)c2c1CCC2=O
-11%	OC(Cc1cccnc1)(Cc1cccnc1)c1cc2ccccc2[nH]1
-31%	C=CC[C@H](CC(=O)NCCO)C(=O)NC[C@@H](OC(=O)[C@@H](CC=C)Cc1ccc(F)cc1)c1ccccc1
-3%	Cc1cc(C)c(C#N)c(SCC(=O)NC(C)(C)C)n1
7%	Cc1cc(NC(=O)C2CCCN(S(=O)(=O)c3c(C)noc3C)C2)no1 (stereo not drawn)
-4%	COc1ccc(-c2nc3cncnc3n(-c3ccccc3)c2=O)cc1
-9%	O=C(CCCCC(=O)NN=Cc1ccccc1O)NN=Cc1ccccc1O
-5%	O=c1c2ccccc2[nH]c(=S)n1CCN1CCN(Cc2ccccc2)CC1
12%	COc1ccc2c(CNCc3ccccc3OC)c(C(=O)O)n(Cc3ccc(F)cc3Cl)c2c1

Taken from above.
Reading for `CC(C)(C)NC(=O)NC(=O)COC(=O)CNC(=O)C1CCCCC1` under VDR inhibitor: -9%
Reading for `OC(Cc1cccnc1)(Cc1cccnc1)c1cc2ccccc2[nH]1` under VDR inhibitor: -11%

More structures
VDR inhibitor	smiles
-4%	CCn1c(=O)cc(OCC(=O)Nc2ccccc2N2CCN(C)CC2)c2ccccc21
15%	O=C(Nc1ccccc1)Nc1ccno1
-4%	COc1cc(CNC(C)c2ccccc2)c(Br)cc1OCC(N)=O (stereo not drawn)
6%	Cc1ccccc1OCC(=O)N/N=C/c1cc2ccccc2nc1Cl
-13%	Cc1occc1C(=O)N/N=C/C(Br)=C\c1ccccc1
-13%	O=C(Nc1ccc(F)c(Cl)c1)C1CC(=O)N(Cc2ccco2)C1 (stereo not drawn)
8%	CCOc1ccccc1NC1=NC2CS(=O)(=O)CC2S1 (stereo not drawn)
-7%	O=c1cc(CO)occ1OCc1cccc(C(F)(F)F)c1
16%	CN(C)c1ccc(O)c2c1C[C@H]1C[C@H]3[C@@H](N(C)C)C(=O)C(C(N)=O)=C(O)[C@]3(O)C(=O)C1=C2O
-12%	COc1ccc(CNC(=O)CN(C)Cc2ccc(C(C)(C)C)cc2)cc1
-7%	COc1ccc(-c2c(-c3ccsc3)oc3ccc(N4CCOCC4)cc23)cn1
-12%	COc1ccc(CCNC(=O)c2ccc(Cn3c(=O)[nH]c4cc(OC)c(OC)cc4c3=O)cc2)cc1OC
?	Cc1ccc(Cn2nc(C)c(C(=O)NCC(c3ccc(F)cc3)N3CCOCC3)c2Cl)cc1 (stereo not drawn)
3%	O=C(NCc1cccs1)c1ccc(CSc2nc3cccnc3n2Cc2ccccc2)cc1
4%	COc1ccc(C(=O)c2c(-c3ccc(OC)cc3)oc3ccc(-c4ccc(OC)nc4)cc23)cc1
-14%	O=C1CCCC(=O)C1=Cc1c[nH]c2ccccc12
-20%	COc1ccc(CNc2nc3ccccc3n2C(C)C)c(O)c1
2%	C[C@H]1CN([C@@H](C)CO)C(=O)c2cccc(NC(=O)c3nc4ccccc4s3)c2O[C@H]1CN(C)C(=O)Nc1ccc(F)cc1
-10%	CC1(C)CN=C(N(Cc2ccccc2)C(=O)Nc2ccccc2)S1
-12%	OC1(c2cccc(C(F)(F)F)c2)CCN(c2ccc(-c3ccccc3)nn2)CC1

(listing goes on)
VDR inhibitor	smiles
-10%	COCCSc1nnc(NS(=O)(=O)c2ccc(C)cc2)s1
-24%	Cc1cccc(Nc2ccccc2C(=O)OCC(=O)N2CCOCC2)c1C
4%	COC(=O)c1ccc2c(c1)nc(C)n2CCO
-4%	C=CCOc1c(CNc2ccc(C(=O)O)cc2)cccc1OC
-15%	CCC/C=C(\CCC)C(NS(=O)(=O)c1cccc2cccnc12)c1ccc(C(=O)OC)cc1 (stereo not drawn)
0%	Cc1ccc(C(C)NC(=O)COC(=O)C2=COCCO2)cc1C (stereo not drawn)
2%	CSc1ncc(C(=O)Nc2cccnc2)c(C(F)(F)F)n1
-16%	COc1cccc(CN(CCC(C)C)S(=O)(=O)c2cc(Br)ccc2Br)c1
3%	Cc1cccnc1NC(=O)C1CCC1
5%	CCNC(=O)c1c(NC(=O)c2cc(-c3cc(C)ccc3O)n[nH]2)sc2c1CCCC2
17%	CN(C)c1ccc(-c2nnc3n(Cc4ccccc4)c(=O)c4ccccc4n23)cc1
2%	CC12CCC(=O)N1C(C(=O)N1CCN(c3ccccc3)CC1)CS2 (stereo not drawn)
9%	Cc1ccc(-n2c(SCC(=O)Nc3nccs3)nc3c(c2=O)SCC3)cc1
7%	CCOC(=O)c1c(O)c2c([nH]c1=O)CCCC2
3%	O=C(CN1CCSC1=O)Nc1ccc(N2CCOCC2)cc1
-3%	COc1cc(C(=O)O)ccc1OCc1c(C)noc1C
-16%	O=C(N/N=C/c1ccccc1O)c1cccc2ccccc12
18%	OCCNc1nc2ccccc2n1-c1ncnc2sc3c(c12)CCC3
13%	CCN(CC)c1ccc(C2C(C(=O)Nc3ccccn3)=C(C)NC3=C2C(=O)CC(C)(C)C3)cc1 (stereo not drawn)
7%	CC(C)(C)c1ccc(OCC(=O)NCC(c2cccs2)N2CCOCC2)cc1 (stereo not drawn)

Remaining list, next part.
VDR inhibitor	smiles
-5%	CN(C)S(=O)(=O)c1ccc(N2CCCC2)c(C(=O)NCC2CCCO2)c1 (stereo not drawn)
-2%	NS(=O)(=O)c1cc(C(=O)Nc2ccc3c(c2)CCC3)ccc1Cl
1%	COc1ccccc1NC(=O)N1CCN(c2nnc(C)c3c(C)n(-c4ccccc4)nc23)CC1
2%	Cc1nn(-c2ccccc2)c2c1C(c1ccncc1)C(C#N)=C(N)O2 (stereo not drawn)
-4%	O=C(O)c1ccc(N2C(=O)C3C4c5ccccc5C(Br)(c5ccccc54)C3C2=O)cc1 (stereo not drawn)
-1%	N#CC1=C(SCc2ccccc2)NC(=O)CC1c1cccc(O)c1 (stereo not drawn)
-1%	COc1ccc(C(CNc2ncnc3sc(C)c(C)c23)N(C)C)cc1 (stereo not drawn)
?	CC(=S)/C=C1\Sc2ccccc2N1C
5%	COc1cc(NC(=O)Cn2nnc(-c3ccncc3)n2)cc(OC)c1
0%	Cn1cccc1/C=C1\SC(=O)N(c2ccccc2)C1=O
7%	CC1OC(c2ccccc2)OC2COC(c3ccccc3)OC12 (stereo not drawn)
-13%	CN(Cc1ccccc1)C(=O)Cn1c(=O)c2cccn2c2cccnc21
-5%	Cc1nnc(NC(=O)c2cccc(S(=O)(=O)N3CCOCC3)c2)s1
-1%	COc1ccc(OCCN2CCN(C(=O)c3ccc(OC(F)F)c(OC)c3)CC2)cc1
-2%	CCOc1cc(CNC(=O)Cn2c(=O)c3cccn3c3ccc(F)cc32)cc(OCC)c1OCC
5%	c1ccc(C[C@H]2CNCCN2CC2CCCCC2)cc1
-7%	CN(CCc1ccccc1)C(=O)c1cccc(NC(=O)Cc2cccc(NC(=O)C3CCN(C(=O)C4CCCCC4)CC3)c2)c1
1%	CCOc1cc(C2CC(=O)Nc3nc(SCc4ccccc4)[nH]c(=O)c32)ccc1O (stereo not drawn)
-4%	COc1ccc(S(=O)(=O)Nc2nnc(Cc3ccc(OC)c(OC)c3)s2)cc1

Structures listed so far containing a Cl atom:
VDR inhibitor	smiles
7%	Cc1nc(S(=O)(=O)Cc2ccccc2Cl)nc2c1CCC2
-12%	O=C(Nc1cccc(F)c1)c1sc(Cl)nc1-c1ccccc1
5%	CCN(CC(=O)NCc1ccc(Cl)cc1)S(=O)(=O)c1ccc(F)cc1
8%	CCn1c(C)nnc1SCC(=O)Nc1ccc(Cl)cc1
14%	COc1ccc(N2C(=O)CS(=O)(=O)C23C(=O)N(Cc2ccc(C)cc2)c2ccccc23)cc1Cl (stereo not drawn)
-24%	O=C(NNc1cc(Cl)ccc1Cl)c1cccs1
11%	Cc1c(C(=O)N2CCC(C(=O)Nc3ccc(F)c(Cl)c3)CC2)sc2nc[nH]c(=O)c12
-13%	Fc1ccc(Nc2nc3ccccc3c3nncn23)c(Cl)c1
-8%	Cc1cc(C)n(CC2CC(=O)N(c3cc(Cl)cc(Cl)c3)C2=O)n1 (stereo not drawn)
17%	O=C(CSCc1ccc(Cl)cc1)Nc1ccccc1O
13%	O=C(O)c1ccc(/C=N/Nc2ccc(Cl)nn2)cc1
12%	COc1ccc2c(CNCc3ccccc3OC)c(C(=O)O)n(Cc3ccc(F)cc3Cl)c2c1
6%	Cc1ccccc1OCC(=O)N/N=C/c1cc2ccccc2nc1Cl
-13%	O=C(Nc1ccc(F)c(Cl)c1)C1CC(=O)N(Cc2ccco2)C1 (stereo not drawn)
?	Cc1ccc(Cn2nc(C)c(C(=O)NCC(c3ccc(F)cc3)N3CCOCC3)c2Cl)cc1 (stereo not drawn)
-2%	NS(=O)(=O)c1cc(C(=O)Nc2ccc3c(c2)CCC3)ccc1Cl

Screens: PubChem BioAssay, National Center for Advancing Translational Sciences (NCATS)

A portion of the library (hit frequency here may not be typical).
